High-throughput results (PubChem)
Env fusion inh: HIV envelope-mediated fusion inhibition; 360,000 compounds, 1.1% hits; AID 651610; HeLa-JRFL Env/CEM21 cell fusion, luciferase; inhibition, % at 12.3 µM;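 active = mean replicate inhibition score of at least 50 and every replicate individually at or above 50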;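 note: 0% = plate neutral controls and 100% = maraviroc near 300 nM; one replicate is shown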
MT1-MMP act inh: MT1-MMP (human) activation inhibition; P50281; 360,000 compounds, 0.061% hits; HT1080 RFP-PRO-GFP cells, GFP/RFP ratio fluorescence, overnight; percent of plate control window, DMSO zero; GFP/RFP ratio change, % at 20 µM;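 active = GFP/RFP ratio change of at least 30% with cell ATP level not reduced by more than half and red fluorescence within 50% of control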; note: strong numbers were not always called active
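Assay system: HT1080 RFP-PRO-GFP cells | Dosing: 20 µM single dose, 1% DMSO | Incubation: Cells overnight before dosing, compound overnight, 37 °C, 5% CO2 | Evaluation: GFP/RFP fluorescence ratio | Control set: DMSO-only wells and HT1080 RFP-L50D-GFP cell wells as references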
CSC inhib: blocks cancer stem cells; cancer stem cell-like cells viability, luminescence; inhibition, % at 7.5 µM; 300,000 compounds, 1.1% hits; AID 2717;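 active = mean at 75% or more and at least half the replicates too; tested in HMLE shEcad cells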;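 note: 0% = median of negative and 100% = median of positive control wells; the first replicate is given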
PABP polyA inh: blocks human PABP binding to poly(A) RNA; P11940; fluorescence polarization; inhibition, % at 35 µM; 290,000 compounds, 1% hits;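 active = 50% or more with normal probe brightness, or confirmed in later tests; about a fifth of its hits are not listed in these tables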;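 note: calls also rest on retests at 20 µM and on dose response follow-up; controls were probe without protein and protein plus probe with vehicle; some compounds called inactive have numbers as strong as hits; many hits fall short of the cut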
Yeast UUG start: yeast start codon fidelity modulation; 350,000 compounds, 0.13% hits; AID 602363; activity score, % at 18.7 µM; S. cerevisiae UUG-firefly luciferase reporter, luminescence/redox ratio;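 active = replicate mean at a twofold rise or more, about +100% in these data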;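 note: firefly luciferase made from a UUG start codon reports start codon fidelity; reporter light over untreated wells divided by growth signal over untreated wells; some hits fall short of that in this replicate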
Rce1 inh: inhibitors of yeast Ras-converting enzyme. AID 2563. 290,000 compounds, 0.27% hits. yeast membranes, quenched prenylated peptide cleavage fluorescence. calls only;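 active = fall in fluorescence gain of 50% or more versus controls, with final raw signal at or below 3038400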;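 note: plate controls were neutral control wells for no effect and wells lacking membranes for full effect; tested at 10 µM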
Target sequence (Q03530 whole entry, looked up): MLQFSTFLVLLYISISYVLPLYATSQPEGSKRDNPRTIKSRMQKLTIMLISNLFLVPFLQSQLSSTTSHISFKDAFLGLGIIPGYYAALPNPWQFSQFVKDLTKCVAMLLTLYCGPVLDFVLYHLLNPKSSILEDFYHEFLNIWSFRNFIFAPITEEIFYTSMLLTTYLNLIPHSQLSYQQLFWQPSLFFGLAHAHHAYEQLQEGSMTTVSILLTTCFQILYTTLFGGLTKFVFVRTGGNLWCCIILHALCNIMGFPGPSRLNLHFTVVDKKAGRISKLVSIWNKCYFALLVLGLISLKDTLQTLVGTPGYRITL
eIF4H inh: inhibitors of RNA binding by human eIF4H. inhibition, % at 35 µM. Q15056. eIF4H fluorescence polarization binding assay. 290,000 compounds, 0.94% hits;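 active = 50% or more with normal probe brightness, or confirmed in later tests; about a fifth of its hits are not listed in these tables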;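 note: calls also rest on retests at 20 µM and on dose response follow-up; 0% = protein and probe with vehicle and 100% = probe without protein; strong numbers were not always called active; many hits fall short of the cut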
eIF4H inh retest: recorded beside eIF4H inh, whose call it bears; inhibition, %; compound at 20 µM; confirmation average;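 mean of two retest wells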
PABP polyA inh retest: further read-out of PABP polyA inh, marked with its call; inhibition, %; compound at 20 µM; confirmation repeats;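 mean of two retest wells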
MT1-MMP act inh RFP: second read-out of MT1-MMP act inh, no call of its own (marks repeat the call); RFP signal change, %; measured here: RFP expression control read;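 0 = vehicle wells; hits needed this value within 50% of zero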
An asterisk follows results filed as active; i = inactive; nt = not tested or not shown; + = active, no number.

Start of the listing, in advance, 5 compounds:
SMILES | Env fusion inh | MT1-MMP act inh | MT1-MMP act inh RFP | CSC inhib | PABP polyA inh | Yeast UUG start | Rce1 inh | eIF4H inh | others
Cc1nc([N+](=O)[O-])c(Br)n1Cc1ccccc1 | 8.4 | 7.9 | -6.7 | -18.0 | -6.1 | nt | i | 12.4
CCOC(=O)/C(C#N)=C\c1c(C)cc(C)c(COC(C)=O)c1C | 57.5 | 1.4 | 6.9 | -15.3 | 10.0 | -4.3 | nt | 9.7
Cc1[nH]c(=S)c(C#N)c(-c2ccco2)c1C(=O)N(C)C | -0.1 | -2.8 | 7.0 | 6.5 | 18.5* | nt | i | 89.8 | eIF4H inh retest=43.0;PABP polyA inh retest=77.0*
Cc1noc(C)c1COC(=O)C1COc2ccccc2O1 (configuration not stated) | 3.6 | 1.7 | 2.1 | 0.0 | 1.2 | -7.1 | i | 2.9
Cc1ccc(OCC(=O)Nc2cccc(-c3nnc(-c4ccccc4)o3)c2)cc1 | -81.2 | 6.3 | 3.4 | 7.0 | 19.4 | -15.1 | i | -1.3

Main list, previewed entries included:
SMILES | Env fusion inh | MT1-MMP act inh | MT1-MMP act inh RFP | CSC inhib | PABP polyA inh | Yeast UUG start | Rce1 inh | eIF4H inh | others
Cc1nc([N+](=O)[O-])c(Br)n1Cc1ccccc1 | 8.4 | 7.9 | -6.7 | -18.0 | -6.1 | nt | i | 12.4
CCOC(=O)/C(C#N)=C\c1c(C)cc(C)c(COC(C)=O)c1C | 57.5 | 1.4 | 6.9 | -15.3 | 10.0 | -4.3 | nt | 9.7
Cc1[nH]c(=S)c(C#N)c(-c2ccco2)c1C(=O)N(C)C | -0.1 | -2.8 | 7.0 | 6.5 | 18.5* | nt | i | 89.8 | eIF4H inh retest=43.0;PABP polyA inh retest=77.0*
Cc1noc(C)c1COC(=O)C1COc2ccccc2O1 (configuration not stated) | 3.6 | 1.7 | 2.1 | 0.0 | 1.2 | -7.1 | i | 2.9
Cc1ccc(OCC(=O)Nc2cccc(-c3nnc(-c4ccccc4)o3)c2)cc1 | -81.2 | 6.3 | 3.4 | 7.0 | 19.4 | -15.1 | i | -1.3
Cn1cnnc1SCC(=O)Nc1ccc(S(=O)(=O)N2CCCC2)cc1 | nt | 4.6 | 5.7 | -11.0 | -10.2 | -8.7 | i | -15.6
CC1(c2nnc(-c3ccc(Cl)cc3)o2)CC(c2cccnc2)=NO1 (configuration not stated) | -2.7 | 2.1 | 2.4 | -8.8 | nt | -15.4 | i | nt
CC(C)c1nnc(NC(=O)c2cccs2)s1 | -14.1 | -0.3 | 3.4 | -2.6 | -7.7 | -14.6 | i | -20.0
COc1ccccc1NC(=O)Cc1nnc(SCC(=O)NC2CCCCC2)n1C | -12.9 | 0.3 | -1.2 | 4.7 | 6.7 | -10.2 | i | -9.0
S=C(NCCc1ccccc1)NC1CCC(NC(=S)NCCc2ccccc2)CC1 (configuration not stated) | 5.5 | 3.6 | -0.4 | 7.1 | 0.2 | -1.0 | i | -1.0
N/C(Cc1ccc(Cl)cc1Cl)=N\OC(=O)c1cccs1 | -224.3 | 3.1 | 2.1 | 3.2 | -0.9 | 58.6 | i | 7.0
Cc1cc(Cl)ccc1OCC(=O)OCC(=O)N(CC(C)C)c1c(N)n(Cc2ccccc2)c(=O)[nH]c1=O | 0.1 | -0.6 | 2.2 | 7.2 | nt | -19.8 | i | nt
CCCCCCN(C(=O)CCCCCN1C(=O)NC(c2ccc(-c3ccccc3)cc2)C(C(=O)OCc2ccccc2)=C1C)C(C(=O)NCCCC)c1ccc(OCC(=O)OC)c(C(=O)OC)c1 (configuration not stated) | 27.7 | nt | nt | 42.8 | -2.3 | nt | i | -15.0
O=C(NC1=NCCS1)c1ccccc1Br | 3.3 | -1.5 | 0.6 | -3.2 | nt | -13.4 | i | nt
CC(Sc1ccc2ccccc2c1)C(=O)NC(N)=O (configuration not stated) | 13.6 | 3.0 | 2.0 | -1.5 | -13.7 | nt | i | -4.2
COc1ccc([N+](=O)[O-])cc1NC(=O)CSCc1ccccc1C | -13.5 | 2.2 | 1.1 | 6.7 | -2.5 | nt | i | 1.5
CN1c2ccccc2Oc2nnc(Cl)cc21 | -68.8 | 2.3 | -1.3 | -8.4 | 2.4 | nt | i | -7.1
COc1ccccc1Nc1cc(C)nc2c(C)ccc([N+](=O)[O-])c12 | -4.1 | 10.0 | 9.5 | 12.3 | 4.3 | nt | i | -1.2
COc1cc(CNCc2ccccn2)ccc1OCc1ccc(Cl)cc1Cl | nt | -3.8 | -5.1 | -3.2 | 0.4 | nt | i | 0.7
Cc1nn(CC(=O)c2cccc(Cl)c2)c(C)c1[N+](=O)[O-] | -0.1 | 3.6 | 6.7 | -1.5 | -0.1 | nt | i | -1.5
CC1CCCCC1NC(=O)CSc1nnc(-c2ccccc2)n1N (configuration not stated) | nt | -1.6 | -2.2 | nt | 2.7 | -25.5 | i | -7.1
CCC(Oc1ccc(Br)cc1Cl)C(=O)Nc1nnc(C2CC2)s1 (configuration not stated) | 17.4 | -1.5 | -0.7 | 15.6 | 0.3 | -10.0 | i | -8.4
COc1ccc(OC)c(/C=N/NC(=O)c2ccncc2)c1 | 6.3 | 0.3 | 4.9 | -5.3 | -0.4 | -16.2 | i | -4.9
Cn1cccc1C(=O)NC(=O)COC(=O)CNC(=O)c1ccc(Cl)cc1Cl | nt | -0.7 | 2.3 | -11.6 | -6.3 | -21.6 | i | 2.8
O=C(CN(Cc1ccccc1)C(=O)c1csnn1)NCc1ccc2c(c1)OCO2 | 11.6 | nt | nt | 4.6 | 9.2 | -4.1 | i | 14.1
CCOC(=O)N1CCN(c2ncnc3c2[nH]c2ccc(OC)cc23)CC1 | 1.7 | nt | nt | -2.2 | -6.4 | -2.2 | i | -14.0
CCOC(=O)N/N=C(\C)c1ccc(Br)cc1 | nt | 3.8 | 2.9 | 1.8 | 2.6 | 0.4 | i | 2.0
CCCN(CCC)S(=O)(=O)c1cc2c3c(c1)CCN3C(=O)CC2 | -5.4 | 3.1 | 6.0 | 1.1 | 6.2 | nt | i | 0.0
COc1ccccc1/C=C/C(=O)NC(=S)Nc1ccccn1 | -17.2 | -2.7 | -2.6 | 7.9 | -4.4 | -32.5 | i | 12.6
CC1(c2ccc(OC(F)F)cc2)NC(=O)N(CC(=O)Nc2ccc3[nH]c(=O)[nH]c3c2)C1=O (configuration not stated) | -19.9 | 3.4 | 1.1 | -4.9 | nt | -9.2 | i | nt
CC(C)=N/N=C1/NC(=O)C(Cc2ccccc2)S1 (configuration not stated) | 19.4 | 1.3 | 4.9 | -16.9 | 4.2 | -22.5 | i | 6.8
CC(CC12CC3CC(CC(C3)C1)C2)NCc1ccccc1O (configuration not stated) | 44.7 | 0.0 | -7.3 | 38.0 | 13.6 | -17.6 | i | -4.2
Oc1ccccc1CN1CCC(C(O)(c2ccccc2)c2ccccc2)CC1 | 3.5 | -7.3 | -4.2 | -13.8 | -8.8 | nt | i | -1.2
O=C(N/N=C/c1ccc2c(c1)OCO2)c1ccc(Br)o1 | -47.5 | -2.1 | 0.3 | 4.5 | -3.4 | nt | i | -3.3
CCOC(=O)c1ccc(NC(=O)c2ccc(NS(C)(=O)=O)cc2)cc1 | 4.3 | 8.7 | -1.2 | 11.8 | 1.4 | -14.2 | i | 4.0
O=C1c2ccccc2NC2(CCCC2)N1O | nt | 2.8 | 8.1 | -1.4 | 4.5 | -13.8 | i | -3.9
O=C(NCC1CCCO1)c1cn(-c2ccccc2)nc1-c1ccccc1 (configuration not stated) | 8.7 | -2.7 | 0.4 | -15.2 | 1.1 | -8.4 | i | 4.8
CCc1noc(C)c1C(=O)NCCc1ccc(OC)c(OC)c1 | -190.2 | -0.2 | 6.7 | -4.2 | 5.0 | -11.6 | i | 2.9
O=C(Nc1ccc(N2CCOCC2)cc1)c1ccc(S(=O)(=O)N2CCCCC2)cc1 | nt | 0.2 | -1.4 | -6.6 | -9.8 | -15.3 | i | -4.8
O=C(NCCc1ccc(Cl)cc1)C1CCN(C(=O)c2ccc(F)cc2)CC1 | 2.5 | 3.9 | -4.3 | -15.4 | -5.6 | 1.9 | nt | -15.8
Cc1cccc(-c2oc3ccccc3c2C#CCCO)c1 | 13.5 | 2.1 | 2.2 | 89.5* | 0.9 | 3.4 | + | 0.7
COc1ccc(S(=O)(=O)NCC2CCCO2)cc1NC(=O)c1ccccc1 (configuration not stated) | 17.0 | -3.1 | 3.0 | 3.8 | 7.2 | -18.3 | i | 2.3
COc1cc2c(cc1OC)CN(c1nc(CN3CCOCC3)nc3sc4c(c13)CCC(C)C4)CC2 (configuration not stated) | 10.7 | -14.8 | -15.1 | 23.1 | 14.0 | nt | i | -2.2
C=CCOC(=O)C1=C(C)NC(SCC(=O)Nc2nccs2)=C(C#N)C1c1cccs1 (configuration not stated) | nt | -8.0 | -13.8 | 69.0 | -5.9 | nt | i | -9.3
CC1Cc2nc(SCC(=O)N3CCCCC3)n(C)c(=O)c2S1 (configuration not stated) | -5.9 | 0.0 | 4.7 | nt | nt | -16.2 | nt | nt
O=C(Nc1ncc(S(=O)(=O)c2ccc([N+](=O)[O-])cc2)s1)c1cccc2ccccc12 | 12.7 | 0.3 | -20.4 | 112.1* | 3.3 | nt | i | -4.3
COc1ccc(-c2cc3cccc(OC)c3oc2=O)cc1 | -114.0 | 2.6 | 0.1 | 5.2 | 9.7 | -58.5 | i | 3.2
Cc1cc([N+](=O)[O-])ccc1NC(=O)C(C)NC1CCCCC1 (configuration not stated) | -9.7 | -0.3 | -2.7 | 0.1 | -9.4 | -11.8 | i | 5.3
COc1cc(CCC(=O)OCC(=O)Nc2ccc(C)cc2Br)cc(OC)c1OC | -59.6 | 1.7 | 1.8 | -14.5 | -2.9 | -5.3 | i | -3.8
O=C(NCCc1ccccc1)c1ccc2c(=O)[nH]c3c(C(=O)NCC4CCCO4)sc(=S)n3c2c1 (configuration not stated) | 0.8 | 0.5 | -4.7 | -14.3 | 51.7 | -13.4 | i | 11.5 | eIF4H inh retest=3.7;PABP polyA inh retest=26.8

(more compounds)
SMILES | Env fusion inh | MT1-MMP act inh | MT1-MMP act inh RFP | CSC inhib | PABP polyA inh | Yeast UUG start | Rce1 inh | eIF4H inh | others
Cc1ccc(CNC(=O)CSc2ccsc2[N+](=O)[O-])cc1 | -8.5 | 1.0 | -0.6 | -16.6 | -8.1 | nt | i | 9.1
CC(=O)c1cccc(NC(=O)CSc2n[nH]c(=O)n2C2CC2)c1 | 11.6 | 5.0 | 6.5 | -15.6 | nt | -9.8 | nt | nt
O=S(=O)(NC(=S)c1ccccc1)c1ccc(F)cc1 | 3.4 | -3.0 | 0.5 | 7.0 | 2.3 | -13.3 | i | -16.8
CN(C)CCOC(=O)c1sc2ccccc2c1Cl | 7.3 | -2.4 | 2.1 | -4.5 | 2.8 | -12.1 | i | -3.5
O=C(CN1C(=O)NC2(CCCc3ccccc32)C1=O)c1ccc(F)cc1 (configuration not stated) | -6.3 | 0.7 | -9.3 | nt | nt | -6.2 | nt | nt
COc1ccc(C2c3ccc(O)cc3Oc3ncn(Cc4ccccc4)c(=N)c32)cc1OC (configuration not stated) | 12.6 | -137.5 | -14.7 | -3.8 | 0.6 | nt | i | 3.9
COC(=O)c1cc(-c2ccc3c(c2)OCO3)nc2ccccc12 | nt | -2.5 | 1.4 | 8.5 | 5.7 | -2.4 | i | -1.5
O=C(Oc1ccc(N(Cc2cccs2)C2=NS(=O)(=O)c3ccccc32)cc1)c1ccc(Cl)cc1 | -121.6 | -0.2 | -5.8 | -1.8 | -8.8 | -5.1 | i | -5.6

An excerpt; rates above refer to the full screens.
